Bioassay records from PubChem.
RanGTP-Impb inh: inhibitors of RanGTP-importin-beta interaction, primary screen, biochemical, FRET, CFP-Ran, YFP-importin-beta, homogeneous | cell-free CFP-Ran/YFP-importin-beta FRET ratio | inhibition, % (test concentration not listed) | 300,000 tested, 1.1% active | AID 2216;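 active = most replicates above 15%; inconclusive = exactly half above 15%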;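 note: 0% = DMSO wells and 100% = Ran loaded with GDP instead of GTP; wells of about 40 µL received 100 nL stock; the first replicate is given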
Beta apoptosis: beta cell apoptosis inhibition; INS-1E cytokine-induced death, ATP luminescence, 48 h; percent of positive-control rescue, neutral wells zero; protection from apoptosis, % (test concentration not listed); AID 435005; 300,000 tested, 0.8% active;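 active = all replicates at 75% or more, or half of them and the mean; inconclusive = half reach 75% but not the mean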;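 note: 0% = cytokine-treated negative control wells and 100% = positive control rescue; higher means more ATP so stronger rescue from cytokine killing; wells of about 40 µL received 100 nL stock; the first replicate is given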
T cruzi inh: blocks replication of Trypanosoma cruzi. T. cruzi beta-gal in NIH3T3, luminescence, 90 h. inhibition, % (concentration not given with the values). 300,000 tested, 1.4% active. AID 1885;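 active = mean inhibition across valid replicates above about 55%, limit read from the data; inconclusive = mean below that limit but half or more replicates reach it; inactive = mean below it, under half of replicates reach it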;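 note: signal also drops with host cell toxicity which is not excluded here; 0% = plate median of DMSO wells and 100% = zero luminescence signal; higher percent means less beta-gal luminescence so fewer parasites; stock transfer was 50 nL into about 50 µL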
A1 inh: inhibitors of the anti-apoptotic protein A1, read as caspase activation. MEF A1-2A-BIM cells, Caspase-Glo 3/7 luminescence, 3 h; percent of clofoctol response, vehicle zero. caspase activation, % (concentration not given with the values). 330,000 tested, 0.066% active;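 active = over half of replicate activation scores above 10%, or exactly half above 10 with the replicate mean above 10; inconclusive = replicate mean below 10 yet half the replicates above 10; inactive = over half of replicates below 10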;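 note: wells of about 30 µL received 50 nL stock; many hits fall short of the cut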
LANA-H2B inh: blocks KSHV LANA binding to histone H2A/H2B | cell-free LANA-H2A/H2B peptide, fluorescence polarization | inhibition, % (concentration not given with the values) | 320,000 tested, 0.6% active | AID 2629; in the data active = inhibition mostly above about 10%, no sharp cut-off; inactive = mostly below about 6.7%;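 note: stock transfer was 7.5 nL into about 10 µL; 0% = median of vehicle wells and 100% = median of positive control wells; one replicate is shown; the record names a cut of 25% in any replicate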
Target sequence (Q9QR71 whole entry, looked up): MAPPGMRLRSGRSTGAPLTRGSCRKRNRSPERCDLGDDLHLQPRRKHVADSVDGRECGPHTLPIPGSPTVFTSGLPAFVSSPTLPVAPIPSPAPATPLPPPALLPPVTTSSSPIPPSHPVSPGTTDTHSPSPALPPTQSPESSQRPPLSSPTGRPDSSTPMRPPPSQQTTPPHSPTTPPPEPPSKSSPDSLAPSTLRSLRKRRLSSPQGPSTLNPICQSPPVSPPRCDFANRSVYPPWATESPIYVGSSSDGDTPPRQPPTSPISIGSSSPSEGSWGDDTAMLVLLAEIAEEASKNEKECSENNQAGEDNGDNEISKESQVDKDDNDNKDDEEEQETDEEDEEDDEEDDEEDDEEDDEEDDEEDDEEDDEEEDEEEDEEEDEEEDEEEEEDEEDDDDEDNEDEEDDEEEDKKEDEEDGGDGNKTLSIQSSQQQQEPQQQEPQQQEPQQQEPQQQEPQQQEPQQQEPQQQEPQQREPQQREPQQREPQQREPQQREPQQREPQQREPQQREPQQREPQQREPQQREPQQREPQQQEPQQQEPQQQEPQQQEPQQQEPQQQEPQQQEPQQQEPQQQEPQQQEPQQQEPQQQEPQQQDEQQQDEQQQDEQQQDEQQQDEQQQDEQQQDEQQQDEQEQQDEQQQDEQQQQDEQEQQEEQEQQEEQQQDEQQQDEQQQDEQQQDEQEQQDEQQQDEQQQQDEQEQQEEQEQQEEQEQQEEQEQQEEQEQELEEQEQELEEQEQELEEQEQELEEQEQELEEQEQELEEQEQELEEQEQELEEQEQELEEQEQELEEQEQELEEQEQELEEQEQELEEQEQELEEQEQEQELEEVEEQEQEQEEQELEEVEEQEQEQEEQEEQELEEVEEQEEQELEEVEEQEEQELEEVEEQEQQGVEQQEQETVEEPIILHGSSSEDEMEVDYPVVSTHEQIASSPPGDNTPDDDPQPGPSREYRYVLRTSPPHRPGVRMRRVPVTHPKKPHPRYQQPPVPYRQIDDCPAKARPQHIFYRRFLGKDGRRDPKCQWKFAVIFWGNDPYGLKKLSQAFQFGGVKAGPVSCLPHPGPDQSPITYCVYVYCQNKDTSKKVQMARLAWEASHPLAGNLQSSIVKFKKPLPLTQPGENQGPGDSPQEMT
UCH37 DUB inh: human UCH37 deubiquitinating enzyme inhibition | Q9Y5K5 | purified proteasome/UCH37, Ub-AMC cleavage fluorescence | inhibition, % (no concentration beside the values) | 330,000 tested, 0.33% active | AID 588478;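 active = mean of two replicates above 20%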;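 note: 0% = compound-free wells with enzyme and 100% = wells lacking proteasome; stock transfer was 100 nL into about 20 µL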
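Material: Human UCH37 enzyme supplied as purified proteasome complex | Schedule: 30 min preincubation with enzyme, 25 min cleavage at room temperature | Detection: AMC fluorescence 355/460 nm | Measure: % inhibition of Ub-AMC cleavage fluorescence | Controls: Wells without proteasome as full block, compound-free enzyme plus substrate as uninhibited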
Beta2AR agonist: agonists of human beta-2 adrenergic receptor inducing internalization | P07550 | Am2.2-beta2AR cells, FAP receptor internalization, flow cytometry; reference of the scale not given here | response, % (test concentration not listed) | 340,000 tested, 0.43% active;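 active = response above a set limit, near 3 SD of response in nonfluorescent compounds, cut at about 42% in these data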;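 note: stock transfer was 100 nL into about 11 µL; a reference agonist was the positive control; negative values mostly stem from fluorescent compounds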
Calb FLC: affects C. albicans growth with fluconazole | C. albicans CaCi-2 (fluconazole-resistant clinical isolate) + fluconazole, Alamar Blue growth, 48 h | growth inhibition, % (concentration not given with the values) | 300,000 tested, 0.57% active | AID 1979;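 active = most replicates above 75%; inconclusive = exactly half above 75%; inactive = most below 75%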;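 note: all wells also contain fluconazole at 8 µg/ml as a sub-toxic cotreatment; 0% = median of DMSO wells and 100% = median of geldanamycin control wells; wells of about 8 µL received 7.5 nL stock; the first replicate is given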
Active calls of the source: *; ? = inconclusive; nt = no result given.

canonical_smiles	RanGTP-Impb inh	Beta apoptosis	T cruzi inh	A1 inh	LANA-H2B inh	UCH37 DUB inh	Beta2AR agonist	Calb FLC
CC(=O)N1CC(C)Oc2ccc(S(=O)(=O)NC(CC(=O)O)c3ccccc3C)cc21 (stereo not given)	1.1	0	-2	1.9	0.5	0.0	1	-12
COc1ccc(CNC(=S)NCc2ccc(Cl)cc2)cc1OC	-1.2	-3	15	1.6	-0.8	2.8	1	-7
Cc1ccc(C(=O)/C=C/c2ccc(F)cc2)o1	5.4	nt	0	-0.6	1.0	7.5	10	25
CCOc1ccccc1N1C(=O)CN(Cc2ccc(OC)c(OC)c2)C1=S	6.6	-1	18	-0.9	3.5	-0.6	-1	-11
COc1ccc(C(CC(=O)N2CCCC2)c2ccc(F)cc2)cc1 (stereo not given)	-2.1	3	-3	-0.3	8.9	2.8	-7	-5
COc1ccc(NC(=O)COC(C)=O)cc1Cl	21*	-4	-24	0.0	-2.0	5.4	-7	-7
CCOc1cc(C(=O)OCc2ccc([N+](=O)[O-])cc2)ccc1OCC(=O)N1CCOCC1	?	nt	-5	-0.2	-3.6	3.7	1	-1
Cc1cccc(N2CCN(C(=O)c3ccc(NC4=NC5CS(=O)(=O)CC5S4)cc3)CC2C)c1 (stereo not given)	-2.9	-12	-11	0.4	-1.1	-0.8	-1	5
CCOC(=O)C1=C(C)C(c2ccccc2O)NC(=O)N1 (stereo not given)	-1.0	3	0	0.2	1.2	5.3	-13	-6
COc1ccc(N(CC(=O)NCC(C)C)S(=O)(=O)c2ccccc2)cc1	1.3	-2	-1	0.1	0.4	4.3	-6	5
CCc1ccc(Nc2cc(C)nc3nc(C)nn23)cc1	-0.2	-4	-17	1.3	-1.6	0.5	6	14
COc1cc(C2NC(=S)NC(O)(C(F)(F)F)C2C(=O)c2cccs2)cc(OC)c1O (stereo not given)	0.0	3	-6	-0.7	-3.6	2.1	4	15
CC(=O)Nc1ccc(S(=O)(=O)N(C)c2nc3ccccc3nc2Cl)cc1	0.5	0	-24	0.6	2.5	8.5	0	1
O=C(Oc1cccc(N2C(=O)CCC2=O)c1)C1CC(=O)N(c2ccc(Br)cc2)C1 (stereo not given)	-0.6	-6	-30	-1.2	1.9	1.7	4	-10
CC1OC(Nc2ccc(N=Nc3ccccc3)cc2)C(O)C(O)C1O (stereo not given)	-1.6	-4	-19	-0.6	-4.8	17	-6	-52
O=C1CC(c2ccccc2)Cc2nc3nc(C(F)(F)F)nn3cc21 (stereo not given)	-201	-6	-1	-0.1	-1.4	4.4	-5	1
CCCOc1ccc(Cn2c(O)cc(=O)[nH]c2=O)cc1	?	-5	2	0.2	-6.0	-1.5	-2	6
CCCCC(=O)NCc1ccc(F)cc1	0.1	-11	7	0.8	-0.9	-4.7	0	?
Fc1ccc(/C=N/NC(=S)Nc2ccc(Cl)cc2Cl)cc1	2.0	2	14	-0.1	5.2	nt	-6	0
CC(C)(C)Nc1nc(SCC(=O)Nc2ccccc2)nc(N2CCOCC2)n1	21*	-5	1	-0.1	-1.1	0.6	-5	2
Cc1ccc(SCCN)cc1C	3.2	-2	-15	-0.2	-0.5	5.7	2	-7
O=c1nc2n(c3ccc([N+](=O)[O-])cc13)CCCCC2	1.9	5	-7	-0.8	0.9	2.6	0	-3
COc1cc(C(=O)OCC(C)=O)c([N+](=O)[O-])cc1OC	0.9	-8	0	0.5	-0.1	2.2	4	0
COc1ccc(-c2cc(=Nc3ccc(C)cc3)c3ccccc3o2)cc1	-1.3	16	41	1.7	-9.3	1.5	9	-20
CC(c1ccccc1)n1c(N2CCNCC2)nc2c1c(=O)[nH]c(=O)n2C (stereo not given)	1.5	3	-13	0.6	0.8	0.7	10	4
Cc1ccc(-n2nc3c(N4CCC(C(=O)N5CCN(C)CC5)CC4)nnc(C)c3c2C)cc1	1.9	-1	19	1.4	-4.9	-14	4	-16
Cc1ccc(S(=O)(=O)N(NC2=NS(=O)(=O)c3ccccc32)C(=O)c2ccccc2)cc1	1.2	0	1	0.9	-5.2	4.1	1	-14
O=S1(=O)N=C(N2CCc3ccccc3C2)c2ccccc21	1.3	nt	-8	0.4	4.5	-2.5	-2	-3
Nc1c(C(=O)N/N=C/c2cccnc2)cnn1-c1ccccc1	4.7	nt	-5	-3.8	1.0	nt	-17	-15
O=C(CNC(=O)c1ccco1)OC(C(=O)c1ccccc1)c1ccccc1 (stereo not given)	nt	-7	nt	0.0	-1.6	3.0	-8	-3
COc1cc(OC)c(NC(=O)C2CCCO2)cc1Cl (stereo not given)	1.1	-4	5	0.5	-10	nt	10	2
Cn1c(=O)oc2cc(S(=O)(=O)N3CCN(c4cccc(Cl)c4)CC3)ccc21	-1.3	-1	4	1.9	-0.8	4.6	-216	-21
O=C(CCl)Nc1cn(-c2ccccc2)nc1-c1ccccc1	0.3	-8	12	0.6	0.1	4.4	-20	-3
CCCCCCC[C@H](N)[C@H](O)C(=O)N(C)[C@@H](CCS(C)=O)C(=O)N[C@@H](Cc1ccc(O)cc1)C(=O)N[C@@H](Cc1ccc(O)cc1)C(=O)O (stereo not given in full)	-0.5	-6	-3	-0.1	0.3	-0.7	6	-22
CCN(CC)CC(C)OC(=O)COc1ccc(OC)cc1 (stereo not given)	-4.1	nt	-18	0.3	0.9	3.7	0	32
Cn1c(O)c(/C=N/Nc2ccccc2)c(=O)n(C)c1=O	7.0	-3	-4	0.2	3.3	3.8	0	?
Nc1[nH]c(N=NC(=O)c2ccc(F)cc2)c2ccccc12	2.1	0	-12	-1.1	-3.1	11	12	15
CCOC(=O)c1ccc2ncc(C(=O)OCC)c(NCCN3CCOCC3)c2c1	-2.7	2	26	0.5	-2.1	2.4	-2	0
CN(C)CC(C)(C)CNCc1cc(=O)oc2ccc3ccccc3c12	2.1	2	8	0.8	1.4	2.4	0	2
O=C(Nc1ccccc1)Nc1ccccc1C(=O)NCc1ccco1	4.9	4	-8	-5.5	7.2	-8.9	-5	12
CC(C)=CC(=O)Nc1ccc(Br)cc1	?	1	-9	-3.3	4.3	2.1	-8	-21
O=C(CSc1cccc[n+]1[O-])Nc1cc(S(=O)(=O)N2CCOCC2)ccc1N1CCOCC1	1.0	-9	12	-0.3	2.3	-0.4	4	21
Clc1cccc(/C=N/Nc2nc(Cl)nc3ccccc23)c1	2.5	nt	25	-0.6	-5.9	nt	2	-5
COc1ncccc1-c1nnn(-c2ccccc2)n1	-3.6	0	-22	0.2	4.8	2.0	-2	-28
CCOC(=O)CSc1nc2sc3c(c2c(=O)[nH]1)CC(C)(CC)OC3 (stereo not given)	-1.0	-6	-4	3.0	2.4	2.4	0	-2
CCOc1cc(/C=N/Nc2ccccc2Cl)ccc1OCC(=O)O	nt	0	nt	-1.9	-6.7	nt	8	nt
C=CCN1C(=O)c2ccc(C(=O)OCC(=O)Nc3ccccc3OC)cc2C1=O	nt	1	nt	-0.1	-0.2	0.9	0	nt
COc1ccc(CCNC(=O)COC(=O)C2CCCCC2)cc1	4.2	3	-6	0.1	-0.2	-0.1	-1	0
COC(=O)c1c(SCC(=O)Nc2ccc(C)c(C)c2)nc(=O)[nH]c1C	-1.2	-6	8	-0.1	2.8	3.3	-1	1
CC(=O)Nc1ccc(NC(=O)c2ccc(CSc3ccccc3)o2)cc1	2.0	-2	-6	-0.9	2.8	-3.8	-13	1
Cc1ccc(NC(=O)CN2CCc3cc4c(cc3C2)OCCCO4)cc1C	-1.3	-14	4	2.4	3.0	-1.9	-3	-51
O=C(O)c1ccc2c(=O)n3c(nc2c1)/C(=C/c1ccc(Cl)c(Cl)c1)CC3	-3.0	3	-8	0.9	-0.7	-108	8	-1
COc1ccc(S(=O)(=O)N2CCOC2CNC(=O)C(=O)NCc2ccc3c(c2)OCO3)cc1 (stereo not given)	1.0	0	19	-0.5	3.1	0.0	-4	-18
NC(=O)CC[C@H](NC(=O)c1ccc(F)cc1)C(=O)OCC(=O)Nc1ccc(N2CCOCC2)cc1	-0.6	17	-10	-0.2	-0.9	2.7	-1	21
CN1CCN(CC(=O)N/N=C/c2ccc(F)c(F)c2)CC1	-2.8	-10	4	0.5	0.1	nt	1	6
Cc1c(CNC2CCCC(C)C2C)c(C(=O)O)c(C)n1Cc1ccccc1 (stereo not given)	-0.3	-6	5	0.3	0.7	2.6	-2	-13
Cc1ccc(S(=O)(=O)N2CCC(C(=O)OCCOc3cccc(C)c3)CC2)cc1	nt	-5	nt	-1.3	1.8	1.1	3	nt
O=C(COc1cc2oc(=O)c3c(c2cc1Cl)CCC3)NCc1ccncc1	-2.5	6	-3	0.5	-0.6	-13	-1	22
CCCOc1ccc(/C(O)=C2/C(=O)C(=O)N(CCN(C)C)C2c2ccc(O)c(OC)c2)cc1 (stereo not given)	7.6	nt	-11	nt	nt	22*	2	nt
O=C(CNC(=O)c1ccc(S(=O)(=O)N2CCCC2)cc1)N/N=C/c1ccccc1	0.1	-10	-7	1.1	-2.3	nt	-6	10

Following part.
canonical_smiles	RanGTP-Impb inh	Beta apoptosis	T cruzi inh	A1 inh	LANA-H2B inh	UCH37 DUB inh	Beta2AR agonist	Calb FLC
CC1(C)CC2CC(C)(CN2C(=O)COC(=O)c2ccc(O)cc2O)C1 (stereo not given)	nt	3	nt	0.3	-1.9	4.5	7	nt
O=C(Nc1ccnn1C1CCN(Cc2ccc(OC(F)F)cc2)CC1)C1CCCC1	-4.2	-4	21	-0.5	2.7	2.5	-5	-10
COc1ccc(CN2C(=O)NC3(CCCCCC3)C2=O)cc1F	-1.2	1	-2	0.9	-2.0	4.3	-3	2
CC1(OC(=O)c2cccs2)C(=O)C=C2C=C(c3ccsc3)OC=C2C1=O (stereo not given)	-8.2	1	-7	-0.5	2.8	nt	nt	7
Cc1cccc(-n2c(C)cc(C(=O)NC3CCCCC3)c2C)c1	2.1	4	-16	-0.2	1.3	3.4	0	-6
Cc1nnc(NCc2ccco2)c2ccccc12	-2.8	-2	5	-0.3	-2.8	2.3	23	18
CC(C(=O)NC1CCCC1)N(C(=O)c1ccc(-c2ccccc2)[nH]1)c1ccccc1F (stereo not given)	13	-6	23	0.1	-2.4	-4.5	-10	-1
O=C(NCc1ccon1)c1ccc(OC2CCN(CCc3ccccc3)CC2)cc1	-6.1	nt	-45	1.2	-8.3	3.0	-7	-1
O=c1c2cc(N3CCOCC3)ccc2[nH]c(=S)n1Cc1ccccc1Cl	3.4	0	8	1.2	-0.2	-161	-5	-6
O=[n+]1c2c(n([O-])c3cc(Br)ccc31)CCC2	4.0	2	-2	-0.1	7.0	3.0	5	-1
CC(C)c1ccc(NC(=O)COC(=O)C2CCCCC2)cc1	nt	-5	nt	0.8	2.1	7.8	3	nt
O=C(N/N=C/C1CC2CCC1C2)c1ccc2c(c1)OCO2 (stereo not given)	-4.3	0	-12	0.0	1.6	nt	-9	-10

Compounds were not picked by outcome, and some 4.3% of all compounds hit somewhere here.
